Screens (PubChem)
GIRK2 activ: GIRK2 channel activation. P48051. HEK293-GIRK2 thallium flux, Thallos fluorescence. calls only for hits at 25 µM. 63,000 compounds, 0.05% hits. AID 1259325;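 active = among the strongest 0.2% of first-round signals and kept after retests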;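 also: first round at about 10 µM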
Target sequence (P48051 whole entry, looked up): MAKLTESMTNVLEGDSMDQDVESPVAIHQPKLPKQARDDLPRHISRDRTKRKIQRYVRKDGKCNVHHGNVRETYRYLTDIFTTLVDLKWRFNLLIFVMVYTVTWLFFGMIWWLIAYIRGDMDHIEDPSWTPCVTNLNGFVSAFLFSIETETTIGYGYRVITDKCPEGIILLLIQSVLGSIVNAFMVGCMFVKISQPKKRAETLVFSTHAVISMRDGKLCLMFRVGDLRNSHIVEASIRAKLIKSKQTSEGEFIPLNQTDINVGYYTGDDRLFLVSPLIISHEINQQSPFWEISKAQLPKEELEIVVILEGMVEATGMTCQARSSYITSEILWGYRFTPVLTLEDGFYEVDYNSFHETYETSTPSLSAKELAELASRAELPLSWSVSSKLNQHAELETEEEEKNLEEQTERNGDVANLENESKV
Calls only; i = inactive. Some of the compounds tested (hit frequency here may not be typical).

item	mol	GIRK2 activ
1	Cc1cc(C)c(C)c(S(=O)(=O)NC(CC(C)C)C(=O)O)c1C (centres undefined)	i
2	O=S(=O)(Cc1cccc(F)c1)NCCCn1ccnc1-c1ccccc1	i
3	O=C(CCCCCn1cnc2ccccc2c1=O)Nc1cccc(Cl)c1	i
4	COc1ccc(OCc2noc(CNS(=O)(=O)CCN3C(=O)CCCC3=O)n2)cc1	i
5	O=C(c1cccnc1)N1CCC(CNS(=O)(=O)c2cc(F)ccc2F)CC1	i
6	COCCCCC(=NOCCN)c1ccc(C(F)(F)F)cc1	i
7	COc1ccc(C(C)C)cc1S(=O)(=O)NCCCn1ccnc1	i
8	COc1ccc(-c2csc(-c3nnn(-c4ccc(F)c(Cl)c4)c3N)n2)cc1	i
9	COc1cc(NC(=O)c2n[nH]nc2Nc2ccc(Cl)cc2)cc(OC)c1	i
10	Cn1c(=O)c(Oc2ccc(F)cc2F)cc2cnc(NC(CO)CO)nc21	i
11	Cc1ccc2oc3c(c(=O)c2c1)C(c1ccccn1)N(c1ccccn1)C3=O (centres undefined)	i
12	CC1CCCCN1c1nc2c(c(=O)[nH]c(=O)n2C)n1CCCc1ccccc1 (centres undefined)	i
13	Cc1c(Cl)cccc1S(=O)(=O)NCCC(O)c1ccoc1 (centres undefined)	i
14	Cn1c(=N)c(C(=O)NC2CCCC2)cc2c(=O)n3ccccc3nc21	i
15	CC(=O)Nc1ccc(NC(=O)c2csc3nc(-c4ccc(F)cc4)cn23)cc1	i

Down the list, quoted from above:
Nos. 1–9 in GIRK2 activ read i, i, i, i, i, i, i, i, i

(next part)
item	mol	GIRK2 activ
16	CC(=O)Nc1ccc(C(=O)NCCc2cc(C)no2)cc1	i
17	O=C(NCCC(c1ccccc1)c1ccccc1)C(=O)Nc1ccc(Cl)cn1	i
18	Cc1nc(Nc2ccccn2)cc(N2CCN(C(=O)Nc3ccc(F)c(Cl)c3)CC2)n1	i
19	CCOc1cc(C)c(S(=O)(=O)NC(C)C)cc1C(C)C	i
20	CCC(C)NC(=O)CCn1c(=O)c2ccccc2n2c(SCc3cccc(OC)c3)nnc12 (centres undefined)	i
21	O=C(Nc1nnc(-c2ccco2)o1)NC1CCCCC1	i
22	O=C(CCS(=O)(=O)c1ccccc1)NC1CC(=O)N(C2CC2)C1 (centres undefined)	i
23	COc1cccc(Oc2c(C(F)(F)F)oc3c4c(ccc3c2=O)OCN(Cc2ccccn2)C4)c1	i
24	O=C(NC1CCCCC1N1C(=O)CSC1=O)c1cc(Cl)ccc1Cl (centres undefined)	i
25	O=C(CN1CCN(C(=O)c2sc3ncccc3c2-n2cccc2)CC1)N1CCCCC1	i
26	Cc1cc(C(=O)N2CCOCC2)n(CC(=O)Nc2cccc(C(F)(F)F)c2)n1	i
27	COc1ccc(CC(=O)N2CCN(c3ncnc4c3nnn4-c3ccc(C)cc3)CC2)cc1OC	i
28	N#Cc1nc(-c2ccc(S(=O)(=O)N3CCCCC3)cc2)oc1NCCc1ccccc1	i
29	Cc1ccc(CNC(=O)Cn2cnc3c(oc4ccccc43)c2=O)cc1	i
30	CCOC(=O)N1CCc2c(sc(NC(=O)c3ccc(OC)cc3)c2-c2nc3ccccc3s2)C1	i
31	Cc1ccc(OCC(O)CN2CCc3ccccc3C2)cc1 (centres undefined)	i
32	O=C(COc1ccc(Cl)cc1Cl)NCCOc1ccccc1	i
33	O=C(O)c1ccc2c(c1)CCCC2	i
34	Cc1c(C(O)=C2C(=O)C(=O)N(CCN(C)C)C2c2cccs2)cnn1-c1ccccc1 (centres undefined)	i
35	O=C(Nc1cc(N2CCN(c3ccccc3)CC2)ncn1)c1cncc(Br)c1	i
36	COCc1nn2c(c1-c1ccccc1)NC(=O)C2CC(=O)Nc1ccccc1C(F)(F)F (centres undefined)	i
37	O=C(C1CCCN(Cc2nc(-c3ccncc3)no2)C1)N1CCN(c2ncccn2)CC1 (centres undefined)	i
38	Fc1ccc(-c2c(-c3ccncc3)n(CCN3CCOCC3)c3cccnc23)cc1	i
39	COC(=O)c1scc(-c2ccc(C)cc2)c1S(=O)(=O)Nc1c(C)cccc1C	i
40	Cc1nnc(SCC(=O)NC2CCCC2)c2c1cnn2-c1ccc(F)cc1	i
41	Cc1cccc(CN2C(=O)CCC2c2nc(C3CC3)no2)c1 (centres undefined)	i
42	Nc1nnc(-c2cccc(Cl)c2Cl)c(N)n1	i
43	Cc1cn2c3c(=O)n(Cc4c(F)cccc4Cl)c(=O)n(C)c3nc2n1Cc1ccco1	i
44	O=C(c1ccc(Cl)s1)N1C2CCC1COC2	i
45	CC(C)c1nccn1CC1CCN(C(=O)c2ccc(F)c(F)c2)CC1	i
46	Cc1ccc(C(C)C)c(OCC(O)Cn2c(N3CCCC3)nc3c2c(=O)[nH]c(=O)n3C)c1 (centres undefined)	i
47	COc1cccc(CNC(=O)c2nnn(-c3ccc(C)c(C)c3)c2-c2ccncc2)c1	i
48	COC(=O)N1CCc2ccc(F)cc2C1C(=O)NCc1c(F)cccc1F (centres undefined)	i
49	COc1ccc(Cl)cc1NC(=O)CSc1nnc(-c2c(C)nc3sccn23)n1C	i
50	O=C(NCCN1CCN(C(=O)c2cccs2)CC1)Nc1ccc(C(F)(F)F)cc1	i
51	O=S1(=O)CCC(CNS(=O)(=O)C2CC2)C1 (centres undefined)	i
52	Cc1cc(C)n(-c2cc(NC(=O)C(C)Oc3cccc(Cl)c3)ncn2)n1 (centres undefined)	i
53	Cc1cccc(NS(=O)(=O)c2c(C)cc(C)c(N(C)S(C)(=O)=O)c2C)c1	i
54	O=C(CSc1ncccc1-c1nc2ccccc2[nH]1)Nc1ccc2c(c1)OCCO2	i
55	CN(c1ccc(F)c(F)c1)S(=O)(=O)c1ccsc1-c1nc(-c2ccccc2)no1	i
56	COCCN1CCC(NC(=O)c2cccs2)CC1	i
57	CCC(C)NC(=O)c1ccc2c(=O)n(Cc3ccccc3)c3nn(Cc4ccccc4C)c(=O)n3c2c1 (centres undefined)	i
58	COc1ccc(OC)c(NC(=O)CSc2ncnc3nc(C)ncc23)c1	i
59	CSCC(C)(O)CNS(=O)(=O)CC(C)C (centres undefined)	i
60	CCCCCn1c(=O)c2c(nc3n(-c4ccc(S(N)(=O)=O)cc4)c(C)cn23)n(C)c1=O	i

Structures listed so far that have an NH in an aromatic ring:
item	mol	GIRK2 activ
9	COc1cc(NC(=O)c2n[nH]nc2Nc2ccc(Cl)cc2)cc(OC)c1	i
12	CC1CCCCN1c1nc2c(c(=O)[nH]c(=O)n2C)n1CCCc1ccccc1 (centres undefined)	i
46	Cc1ccc(C(C)C)c(OCC(O)Cn2c(N3CCCC3)nc3c2c(=O)[nH]c(=O)n3C)c1 (centres undefined)	i
54	O=C(CSc1ncccc1-c1nc2ccccc2[nH]1)Nc1ccc2c(c1)OCCO2	i

The list goes on.
item	mol	GIRK2 activ
61	Cc1nc(-n2nc(-c3cccs3)cc2NC(=O)Cc2ccc(F)cc2)[nH]c(=O)c1Cc1ccccc1	i
62	CN(C(=O)CN1CN(c2cccc(F)c2)c2ncccc2S1(=O)=O)c1ccccc1	i
63	COc1cc(NC(=O)Cn2cccc(S(=O)(=O)N3CCCCC3)c2=O)cc(OC)c1	i
64	COc1ccc(Br)c(C(=O)NCc2cc(-c3ccco3)n(C)n2)c1	i
65	COc1ccc(C)cc1N1CCCn2c1nc1c2c(=O)n(Cc2ccc(C)cc2)c(=O)n1C	i
66	COc1ccc2c(c1)O/C(=C\c1ccc(O)cc1)C2=O	i
67	CSc1ccccc1C(=O)N1CCN(c2ncnc3c2nnn3-c2ccc(C)cc2)CC1	i
68	Cc1cc(C)n(-c2ccc(=O)n(CCNC(=O)Cn3ccc4ccccc43)n2)n1	i
69	COc1ccc(C(=O)CN2C(=O)CC(c3cccs3)CC2=O)cc1	i
70	C=CCn1c(=O)c2c(nc3n2CCCN3c2cc(OC)ccc2OC)n(C)c1=O	i
71	CC(C)CNC(CC(=O)Nc1ccccc1Br)C(=O)O (centres undefined)	i
72	C=CCNC(=O)c1sccc1S(=O)(=O)N(C)c1ccc(C)c(C)c1	i
73	COc1ccccc1N1C(=O)N(Cc2cccc(C#N)c2)c2ccccc2S1(=O)=O	i
74	Cc1cccc(NC(=O)Cn2ncc3c(c2=O)N(C)C(=O)CS3)c1C	i
75	COc1ccc(C(=O)Nc2cc3c4c(c2)CCC(=O)N4CCC3)cc1	i
76	Cn1cc(NC(=O)Nc2ccncc2)c2ccccc21	i
77	O=S(=O)(C1CC1)N1CC(c2nc3ccccc3[nH]2)C1	i
78	CCCCN(C)c1ncc(S(=O)(=O)c2ccc(OC)c(Cl)c2)c(N)n1	i
79	Cc1ccc(NC(=O)CSc2nc3c(sc(=S)n3-c3ccccc3)c(=O)[nH]2)c(Cl)c1	i
80	Cc1nn(C)cc1S(=O)(=O)Nc1ccc(F)c(Cl)c1	i
81	Cc1c(Cl)cccc1S(=O)(=O)NCC(O)c1ccc2c(c1)CCO2 (centres undefined)	i
82	COc1ccc(OCCCN2C(=O)C(O)(CC(C)=O)c3cccc(C)c32)cc1 (centres undefined)	i
83	O=C(Cc1csc(-n2cccc2)n1)Nc1ccc(OC(F)(F)F)cc1	i
84	CCCCNC(=O)Cn1cncc(-c2nc(-c3ccccc3)cs2)c1=O	i
85	COC(=O)C1=C(C)N=c2s/c(=C/c3c(C)nn(C)c3C)c(=O)n2C1c1ccc(OC)cc1 (centres undefined)	i
86	Cc1cc(=O)[nH]c(-n2nc(-c3cccs3)cc2NC(=O)Cc2ccc(F)cc2)n1	i
87	Cc1ccc(-c2nnc(NC(=O)c3ccc(OC(C)C)cc3)o2)c(C)c1	i
88	COc1ccc(NC(=O)CSc2nnc(-c3cccc(C)c3)n2N)cc1OC	i
89	CC(O)(CCc1ccccc1)CNC(=O)c1ccc(Br)cc1 (centres undefined)	i
90	CN(C)C(CNC(=O)Nc1cccs1)c1cn(C)c2ccccc12 (centres undefined)	i
91	O=C1CC(C(=O)Nc2ccc(F)c(F)c2)n2c(nc3ccccc32)N1 (centres undefined)	i
92	CSc1cccc(NC(=O)Cn2nc3c(Oc4cc(C)cc(C)c4)nccn3c2=O)c1	i
93	CCc1ccc2c(c1)cc(S(=O)(=O)c1ccccc1)c(=O)n2CC(=O)NC(C)CC (centres undefined)	i
94	O=C(Nc1nc2c(s1)CN(S(=O)(=O)c1c(F)cccc1F)CC2)c1ccoc1	i
95	Cc1ccc(S(=O)(=O)c2nnn3c2nc(N2CCC(C(N)=O)CC2)c2cc(Cl)ccc23)cc1C	i
96	O=C(NCc1ccccc1F)c1ccc2c(=O)nc3c(-c4cccc(F)c4)n[nH]n3c2c1	i
97	Cc1ccc(S(=O)(=O)Nc2ccc(C)cc2C)cc1	i
98	Cc1ccc(S(=O)(=O)CCCC(=O)N(CCN(C)C)c2nc3ccccc3s2)cc1	i
99	CC(C)(C)c1ccc(C(=O)NC2=N/C(=C(/C#N)C(=O)N3CCOCC3)c3ccccc32)cc1	i
100	CCOC(=O)c1sc2ccccc2c1S(=O)(=O)NCc1ccc2c(c1)OCO2	i
101	CN(C)CCNC(=O)C12CC3(C)CC(C)(CC(Br)(C3)C1)C2	i
102	CCS(=O)(=O)N1CCN(Cc2nc3ccccc3n2C)CC1	i
103	Cc1cccc2[nH]c(COc3ccc(F)cc3)nc12	i
104	CSc1ccc(-c2noc(-c3c[nH]c4ccc(C)cc4c3=O)n2)cc1	i
105	CCc1cccc(C)c1NC(=O)CSC1=Nc2ccccc2NC(CC(=O)OC)=C1	i
106	O=C(Nc1nc(C(=O)N2CCN(c3ccc(C(F)(F)F)cn3)CC2)co1)c1cnccn1	i
107	O=C(NC(C(=O)N1CCN(C(=O)c2cccs2)CC1)S(=O)(=O)c1ccccc1)c1ccccc1 (centres undefined)	i
108	Cn1nc(C2CCN(C(=O)c3csc(-c4ccccc4)n3)CC2)n(-c2ccccc2)c1=O	i
109	COc1ccc2nc(N(CCCn3ccnc3)C(=O)/C=C/c3cccs3)sc2c1	i
110	Cc1cc(C)cc(OCCNS(=O)(=O)c2ccc3c(c2)OCCO3)c1	i
111	COc1ccc(NC(=O)Nc2ccc3c(c2)CCCN3C(=O)C(C)C)cc1	i
112	Cc1cc(NC(=O)CCc2ccccc2)n(-c2nc3c(cnn3-c3cccc(C)c3C)c(=O)[nH]2)n1	i
113	Cc1nc(-c2ccccc2Cl)sc1CNC(=O)c1cnccn1	i
114	O=C(c1ccc(NS(=O)(=O)c2cccc(Cl)c2)cc1)N1CCN(c2ccccc2)CC1	i
115	COc1ccccc1NC(=O)c1cc(-c2ccc(Cl)cc2[N+](=O)[O-])oc1C	i
116	Cc1ccc(CNC(=O)C2CCN(c3cnc4ccccc4n3)CC2)cc1	i
117	Cc1cc(C)cc(NC(=O)CN2CCC(C(=O)N3CCn4c3nc3ccccc34)CC2)c1	i
118	O=C(c1ccsc1)N1CCC(Cn2c(COc3ccccc3)nc3ccccc32)CC1	i
119	Cc1ccc(CN(c2cc(C)cc(C)c2)S(=O)(=O)c2cccn3c(C)nnc23)cc1	i
120	CCOC(=O)CCC(=O)N1CCC(c2ccccc2)C1 (centres undefined)	i

Reprinted at random: 5 compounds from above
item	mol	GIRK2 activ
117	Cc1cc(C)cc(NC(=O)CN2CCC(C(=O)N3CCn4c3nc3ccccc34)CC2)c1	i
120	CCOC(=O)CCC(=O)N1CCC(c2ccccc2)C1 (centres undefined)	i
112	Cc1cc(NC(=O)CCc2ccccc2)n(-c2nc3c(cnn3-c3cccc(C)c3C)c(=O)[nH]2)n1	i
109	COc1ccc2nc(N(CCCn3ccnc3)C(=O)/C=C/c3cccs3)sc2c1	i
114	O=C(c1ccc(NS(=O)(=O)c2cccc(Cl)c2)cc1)N1CCN(c2ccccc2)CC1	i

Continued:
item	mol	GIRK2 activ
121	COc1cccc2sc(N3CCN(C(=O)c4cc(C)nn4C)CC3)nc12	i
122	Cc1ccc(C(C)C)cc1S(=O)(=O)NCCNc1ccc(Nc2cccnc2)nn1	i
123	COc1ccc(-n2ccn(CC(=O)Nc3cc(C)cc(C)c3)c(=O)c2=O)cc1	i
124	CCSc1nnc(C)c2cnn(-c3ccc(C)c(C)c3)c12	i
125	CCN(CC)CCCN1C(=O)c2oc3ccccc3c(=O)c2C1c1ccc(OC)cc1 (centres undefined)	i
126	O=C(CN1C(=O)c2ccccc2S1(=O)=O)Nc1ccc(S(=O)(=O)Nc2ncccn2)cc1	i
